PKD1 kinase inh: inhibitors of human PKD1 kinase. PKD1 kinase fluorescence polarization assay. inhibition, %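 (about 10 µM by stock and volumes)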. 200,000 tested, 0.056% active. AID 797;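 active = inhibition of 50% or more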;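 also: controls were vehicle for no effect and a reference inhibitor for full effect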
Target sequence (Q15139 whole entry, looked up): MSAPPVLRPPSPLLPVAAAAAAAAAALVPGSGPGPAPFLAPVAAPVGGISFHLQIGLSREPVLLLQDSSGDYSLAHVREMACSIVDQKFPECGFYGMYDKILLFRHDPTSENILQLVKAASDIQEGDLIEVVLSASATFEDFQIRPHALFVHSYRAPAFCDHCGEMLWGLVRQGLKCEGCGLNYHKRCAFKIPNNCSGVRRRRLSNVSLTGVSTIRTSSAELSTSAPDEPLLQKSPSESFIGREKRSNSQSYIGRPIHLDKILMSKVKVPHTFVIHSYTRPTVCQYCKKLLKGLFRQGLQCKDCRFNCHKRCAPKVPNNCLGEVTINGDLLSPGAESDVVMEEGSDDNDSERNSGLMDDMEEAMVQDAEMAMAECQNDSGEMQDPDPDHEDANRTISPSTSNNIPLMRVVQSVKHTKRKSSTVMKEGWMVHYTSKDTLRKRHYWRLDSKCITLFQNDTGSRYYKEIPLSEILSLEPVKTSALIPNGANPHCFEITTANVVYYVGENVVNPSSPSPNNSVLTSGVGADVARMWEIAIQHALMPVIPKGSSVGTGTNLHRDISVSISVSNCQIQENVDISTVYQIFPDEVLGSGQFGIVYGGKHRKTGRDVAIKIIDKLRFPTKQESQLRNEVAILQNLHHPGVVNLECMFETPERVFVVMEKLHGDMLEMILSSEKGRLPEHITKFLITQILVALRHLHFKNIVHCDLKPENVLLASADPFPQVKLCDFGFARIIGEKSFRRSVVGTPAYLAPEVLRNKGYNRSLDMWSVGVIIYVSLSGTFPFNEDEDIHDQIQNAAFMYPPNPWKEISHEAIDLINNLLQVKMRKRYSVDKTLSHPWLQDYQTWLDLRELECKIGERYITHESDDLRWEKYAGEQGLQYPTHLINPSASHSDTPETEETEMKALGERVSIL
GALR2 agonist: activates the human galanin receptor 2; O43603; GALR2-expressing cells, agonist activation read-out; 140,000 tested, 0.48% active; AID 803; activation, %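 (tested at 5 µM)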;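 active = above mean plus 3 SD of all compounds, about 5% in these data, not always enough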;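 also: 0% = vehicle buffer wells and 100% = reference agonist at full effect; tested in CHO reporter cells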
Insulin prom inh: TRM-6 insulin promoter activity inhibition; TRM-6 cells (human fetal islet line), insulin promoter-eGFP reporter, imaging; reporter expression induced with tamoxifen; AID 1273; inhibition, % at 2 µM; 130,000 tested, 0.9% active;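 active = inhibition above the mean plus 3 SD, with well images judged a real hit on visual review, cut at about 60% in these data, passing the limit was not always enough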
RGS16-Gao HTS: regulators of human RGS16-Galphao interaction | O15492+P09471 | bead-based flow cytometry RGS16-Galphao binding, fluorescence; actives lie on both sides | binding response (% of control), % at 10 µM | 220,000 tested, 0.38% active;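 active = below 25% or above 175%, edge rows of some plates excepted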;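 also: Galphao activated by GDP with aluminum fluoride before binding; 100% = wells without compound and 0% = beads without RGS; some results beyond the cut were filed as inactive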
HSV augment: increases HSV replication in cells; HSV replication augmentation in cells, fold increase; maximum fold increase; 220,000 tested, 0.005% active; AID 1956;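 active = peak rise of 1.5-fold or more in the series; tested in PC3 cells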;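 also: first round at 10 µM; read as green reporter fluorescence; hits show the peak of a series up to 25 µM; 1 = signal of infected wells without compound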
Insulin prom inh cell count: also measured in Insulin prom inh; calls as there; normalized cell count, %; measured here: cell count, toxicity; reference of the scale not given here;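 cells exposed to compound for 48 h; stained nuclei by imaging scaled within each plate; lower means fewer cells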
HSV augment primary fold: recorded beside HSV augment, whose call it bears; fold increase; compound at 10 µM; measured here: primary screen fold increase 10 uM; tested in PC3 cells;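 GFP signal in the first replicate; 1 = infected wells without compound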
An asterisk follows results filed as active. The order is random; 1.3% or so of the library scored in one or more.

CC(NC(=O)CSCc1ccc(Br)cc1)c1ccccc1 (stereo not given) was read as PKD1 kinase inh 2, RGS16-Gao HTS 100, HSV augment inactive and HSV augment primary fold 0.96.
CCO[C@H]1OC(C(=O)NC2CC2)=C[C@@H](C2CC2)[C@@H]1CCCO was read as PKD1 kinase inh 18, RGS16-Gao HTS 107, HSV augment inactive and HSV augment primary fold 0.95.
For Nc1n[nH]c(-c2ccccc2)c1-c1ccccc1 the results were PKD1 kinase inh -2, GALR2 agonist -1.6, RGS16-Gao HTS 101, HSV augment inactive and HSV augment primary fold 1.1.
For CCOc1ccc(/C=N/Nc2nncc(-c3ccccc3)n2)cc1OC the results were PKD1 kinase inh -6, Insulin prom inh 0, RGS16-Gao HTS 99, HSV augment inactive, Insulin prom inh cell count 98 and HSV augment primary fold 0.98.
`O=C1CC(N2CCN(c3ccc(F)cc3)CC2)C(=O)N1c1ccc2c(c1)OCO2` (stereo not given) gave PKD1 kinase inh -1, RGS16-Gao HTS 99, HSV augment inactive and HSV augment primary fold 0.92.
For Cc1ccc(C)c(N(CC(=O)NC2CCCCC2)C(=O)CCC(=O)Nc2ccccn2)c1 the results were PKD1 kinase inh 8 and GALR2 agonist -0.5.
Screening CCOC(=O)c1c2c(n(C)c1COC)C(=O)C(=O)c1ccc(Br)cc1-2 returned PKD1 kinase inh 1, GALR2 agonist -2.0, Insulin prom inh -351, HSV augment inactive, Insulin prom inh cell count 52 and HSV augment primary fold 0.56.
For Cn1cnnc1SCC(=O)NCCc1ccc(Cl)cc1Cl the results were PKD1 kinase inh 3, RGS16-Gao HTS 100, HSV augment inactive and HSV augment primary fold 1.
For CCOC(=O)C(C(=O)OCC)N(C#N)c1nc(C)cc(C)n1 the results were PKD1 kinase inh -10, GALR2 agonist -4.6, Insulin prom inh 12, RGS16-Gao HTS 105, HSV augment inactive, Insulin prom inh cell count 100 and HSV augment primary fold 0.89.
`CCN(CC)S(=O)(=O)c1ccc(Cl)c(C(=O)Oc2cccnc2)c1` gave PKD1 kinase inh -5, GALR2 agonist -2.6, RGS16-Gao HTS 98, HSV augment inactive and HSV augment primary fold 1.
Cc1nnc(SCCCn2c(N3CCCCC3)nc3c2c(=O)[nH]c(=O)n3C)s1 was read as PKD1 kinase inh -3, GALR2 agonist -1.1, Insulin prom inh 7, RGS16-Gao HTS 35, HSV augment inactive, Insulin prom inh cell count 72 and HSV augment primary fold 0.89.
For O=C(Nc1ccccc1Cc1ccccc1)c1ccccc1NS(=O)(=O)c1ccc(Cl)s1 the results were PKD1 kinase inh 5, GALR2 agonist -1.8, Insulin prom inh 31, RGS16-Gao HTS 102 and Insulin prom inh cell count 143.
`Cc1onc(-c2ccccc2Cl)c1C(=O)Nc1ccc(-c2nnc3n2CCCCC3)cc1` gave PKD1 kinase inh -6, GALR2 agonist -1.4, Insulin prom inh -23, RGS16-Gao HTS 98, HSV augment inactive, Insulin prom inh cell count 103 and HSV augment primary fold 0.87.
`O=C(Nc1ccccc1)C1CCN(C(=O)c2ccccc2)CC1` gave PKD1 kinase inh -5, GALR2 agonist -1.6, Insulin prom inh -6, RGS16-Gao HTS 96, HSV augment inactive, Insulin prom inh cell count 67 and HSV augment primary fold 0.97.
Screening O=C(Oc1coc(CSc2ncccn2)cc1=O)c1ccc(Br)o1 returned PKD1 kinase inh -2, GALR2 agonist 0.5, RGS16-Gao HTS 99, HSV augment inactive and HSV augment primary fold 1.1.
For CCCCS(=O)(=O)Nc1ccc2ncn(C)c(=O)c2c1 the results were PKD1 kinase inh -6, GALR2 agonist -3.6, Insulin prom inh -23, RGS16-Gao HTS 101 and Insulin prom inh cell count 75.
`CC(C)(C)NC(=O)CSc1nc(O)cc(=O)n1-c1ccccc1` gave PKD1 kinase inh -4, GALR2 agonist -2.6, Insulin prom inh 30, RGS16-Gao HTS 102, HSV augment inactive, Insulin prom inh cell count 82 and HSV augment primary fold 0.95.
`NC(=O)CC(NC(=O)Cc1ccc(Br)cc1)c1ccc(NCCc2ccc(Cl)cc2)c([N+](=O)[O-])c1` (stereo not given) gave RGS16-Gao HTS 109, HSV augment inactive and HSV augment primary fold 0.88.
`CCOc1ccc(NC(=O)c2c(OC)cccc2OC)cc1` gave PKD1 kinase inh 10, RGS16-Gao HTS 92, HSV augment inactive and HSV augment primary fold 0.97.
O=C1CC(C(=O)N(c2ccccc2)C(C(=O)NC2CCCC2)c2ccncc2)CS1 (stereo not given) was read as PKD1 kinase inh -3, Insulin prom inh -53, RGS16-Gao HTS 103, HSV augment inactive, Insulin prom inh cell count 119 and HSV augment primary fold 0.95.

Continued; the last two above are carried over.
`CCOc1ccc(NC(=O)c2c(OC)cccc2OC)cc1` gave PKD1 kinase inh 10, RGS16-Gao HTS 92, HSV augment inactive and HSV augment primary fold 0.97.
O=C1CC(C(=O)N(c2ccccc2)C(C(=O)NC2CCCC2)c2ccncc2)CS1 (stereo not given) was read as PKD1 kinase inh -3, Insulin prom inh -53, RGS16-Gao HTS 103, HSV augment inactive, Insulin prom inh cell count 119 and HSV augment primary fold 0.95.
For FC(F)(F)c1nc2ccccc2nc1N/N=C/c1ccc(Cl)cc1 the results were PKD1 kinase inh 4, GALR2 agonist -3.1, Insulin prom inh 4, RGS16-Gao HTS 103, HSV augment inactive, Insulin prom inh cell count 124 and HSV augment primary fold 0.86.
O=C(NCCCCNC(=O)C1CCCC1)C1CCCC1 was read as PKD1 kinase inh -6, GALR2 agonist -2.9, Insulin prom inh -85, RGS16-Gao HTS 100, HSV augment inactive, Insulin prom inh cell count 114 and HSV augment primary fold 1.1.
Screening CCN(CC)CCN(Cc1cc2cc(C)ccc2[nH]c1=O)C(=S)Nc1ccccc1 returned PKD1 kinase inh -1, RGS16-Gao HTS 102, HSV augment inactive and HSV augment primary fold 0.94.
`CN(NS(=O)(=O)c1ccc(Cl)cc1)c1cnn(C)c(=O)c1Cl` gave RGS16-Gao HTS 90, HSV augment inactive and HSV augment primary fold 1.1.
Nc1nc(Br)c2c(F)cccc2c1-c1ccccc1 was read as PKD1 kinase inh 11, GALR2 agonist 1.6, Insulin prom inh -88, RGS16-Gao HTS 100 and Insulin prom inh cell count 84.
For COc1cc(C)c(C(N)=O)c(OC)n1 the results were PKD1 kinase inh 5, GALR2 agonist -0.5, Insulin prom inh 46, RGS16-Gao HTS 103, HSV augment inactive, Insulin prom inh cell count 97 and HSV augment primary fold 1.1.
Screening COC(=O)c1ccccc1NC(=O)Nc1ccc2c(c1)OCO2 returned PKD1 kinase inh -2, GALR2 agonist -1.5, Insulin prom inh -56, RGS16-Gao HTS 104, HSV augment inactive, Insulin prom inh cell count 122 and HSV augment primary fold 1.
`O=C1C(C=NCc2ccccn2)=C(O)c2ccccc21` gave PKD1 kinase inh 1, GALR2 agonist -1.9, Insulin prom inh 64, RGS16-Gao HTS 102, HSV augment inactive, Insulin prom inh cell count 53 and HSV augment primary fold 0.9.
Screening CCN1CCN(c2ccc(NC(=O)c3ccc(C#N)cc3F)cc2Cl)CC1 returned PKD1 kinase inh 4, Insulin prom inh -33, RGS16-Gao HTS 98, HSV augment inactive, Insulin prom inh cell count 100 and HSV augment primary fold 0.89.
For Cc1nccc2[nH]c(=O)c(C(=O)NC3CCCCC3C)cc12 (stereo not given) the results were PKD1 kinase inh -3, GALR2 agonist -1.2, RGS16-Gao HTS 106, HSV augment inactive and HSV augment primary fold 1.
Screening COc1ccccc1NC(=O)c1oc2ccccc2c1NC(=O)c1cc(OC)c(OC)c(OC)c1 returned PKD1 kinase inh -8, GALR2 agonist 0.8, Insulin prom inh -41 and Insulin prom inh cell count 120.
Cc1nn(C)c(Cl)c1/C=N/OC(=O)c1ccccc1 was read as PKD1 kinase inh -4, Insulin prom inh -24, RGS16-Gao HTS 89, HSV augment inactive, Insulin prom inh cell count 71 and HSV augment primary fold 1.2.
COc1ccc(C2C(C#N)=C(N)OC3=C2C(=O)CC(C)(C)C3)cc1OC (stereo not given) was read as PKD1 kinase inh 5, Insulin prom inh 15, RGS16-Gao HTS 107, HSV augment inactive, Insulin prom inh cell count 147 and HSV augment primary fold 0.89.
`O=C1CC(c2cccc(Cl)c2)Cc2nc(N3CCN(c4ccccc4)CC3)ncc21` (stereo not given) gave PKD1 kinase inh -2, GALR2 agonist -3.6, Insulin prom inh -18, RGS16-Gao HTS 101, HSV augment inactive, Insulin prom inh cell count 104 and HSV augment primary fold 1.
`O=C(c1cc([N+](=O)[O-])ccc1N1CCCCC1)N1CCCCC1` gave PKD1 kinase inh -1, GALR2 agonist -1.8, Insulin prom inh -6, RGS16-Gao HTS 105, HSV augment inactive, Insulin prom inh cell count 75 and HSV augment primary fold 1.
Cc1c(Br)c([N+](=O)[O-])nn1CC(=O)NCCc1c[nH]c2ccccc12 was read as PKD1 kinase inh -9, RGS16-Gao HTS 101, HSV augment inactive and HSV augment primary fold 0.98.
COc1ccc(/C=C/C(=O)NC(=S)Nc2ccc(N3CCN(C(C)=O)CC3)cc2)cc1 was read as RGS16-Gao HTS 90, HSV augment inactive and HSV augment primary fold 0.81.
`O=C(c1cc(Cl)c(=O)n(Cc2ccc(Cl)cc2)c1)N1CCOCC1` gave PKD1 kinase inh -7, GALR2 agonist -3.8, Insulin prom inh 21, RGS16-Gao HTS 100, HSV augment inactive, Insulin prom inh cell count 116 and HSV augment primary fold 0.82.
CCOc1cc(C(=S)N2CCOCC2)ccc1OC(=O)/C=C/c1ccc(OC)c(OC)c1 was read as PKD1 kinase inh -5, GALR2 agonist -0.3, Insulin prom inh 33, RGS16-Gao HTS 38 and Insulin prom inh cell count 121.
Cc1nc2cc(C(=O)OCC(=O)N(CC(C)C)C3CCS(=O)(=O)C3)ccc2n1-c1ccccc1 (stereo not given) was read as PKD1 kinase inh 1, GALR2 agonist -1.7, Insulin prom inh -43, RGS16-Gao HTS 103, HSV augment inactive, Insulin prom inh cell count 58 and HSV augment primary fold 0.9.
For CCn1c(SC)nnc1-c1c[nH]c2ccccc12 the results were PKD1 kinase inh 2, GALR2 agonist -3.3, RGS16-Gao HTS 102, HSV augment inactive and HSV augment primary fold 0.97.
COc1ccccc1OCC(=O)Nc1sc2c(c1C(=O)NCC1CCCO1)CCC2 (stereo not given) was read as PKD1 kinase inh -4, GALR2 agonist -3.1, Insulin prom inh -29, RGS16-Gao HTS 95, HSV augment inactive, Insulin prom inh cell count 65 and HSV augment primary fold 1.1.
`O=C(NC12CC3CC(CC(C3)C1)C2)c1cccnc1` gave PKD1 kinase inh 8, GALR2 agonist -1.7, Insulin prom inh 25, RGS16-Gao HTS 101, HSV augment inactive, Insulin prom inh cell count 118 and HSV augment primary fold 1.2.
For Cc1cc(C)n(C(=O)CNc2ccccc2Cl)n1 the results were PKD1 kinase inh -1, GALR2 agonist -2.0, Insulin prom inh -100, RGS16-Gao HTS 36, HSV augment inactive, Insulin prom inh cell count 87 and HSV augment primary fold 0.98.
For Cc1cccc(NC(=S)NC(NC(=O)c2ccco2)C(Cl)(Cl)Cl)c1 (stereo not given) the results were PKD1 kinase inh -4, GALR2 agonist -0.6, Insulin prom inh 29, RGS16-Gao HTS 93, HSV augment inactive, Insulin prom inh cell count 122 and HSV augment primary fold 0.85.
Screening Cc1cccc(/C=N/NC(=O)CNc2cccc3ccccc23)n1 returned PKD1 kinase inh -8, GALR2 agonist -1.2, Insulin prom inh -19, RGS16-Gao HTS 94, HSV augment inactive, Insulin prom inh cell count 109 and HSV augment primary fold 0.9.
Screening COCCCN1C(=O)C(=O)/C(=C(/O)c2ccc(OC(C)C)c(C)c2)C1c1ccncc1 (stereo not given) returned PKD1 kinase inh 5, GALR2 agonist -2.0, Insulin prom inh -12, RGS16-Gao HTS 99, HSV augment inactive, Insulin prom inh cell count 87 and HSV augment primary fold 0.95.
For COCCNC(=O)C1c2cc(OC)c(OC)cc2C(=O)N(C)C1c1cccnc1 (stereo not given) the results were PKD1 kinase inh -28, GALR2 agonist -4.5, Insulin prom inh 13, RGS16-Gao HTS 99, HSV augment inactive, Insulin prom inh cell count 112 and HSV augment primary fold 1.
`O=C(NNC1=NS(=O)(=O)c2ccccc21)c1ccccc1Cl` gave PKD1 kinase inh -7, RGS16-Gao HTS 100, HSV augment inactive and HSV augment primary fold 0.96.
Screening COc1ccccc1NS(=O)(=O)c1cccc(NC(=O)C2CC(=O)N(Cc3ccccc3)C2)c1 (stereo not given) returned PKD1 kinase inh -6, Insulin prom inh 0, RGS16-Gao HTS 104, HSV augment inactive, Insulin prom inh cell count 80 and HSV augment primary fold 0.96.
For O=C(COC(=O)c1ccccc1NCc1ccco1)Nc1ccc2c(c1)OCO2 the results were PKD1 kinase inh 4, GALR2 agonist -2.5, Insulin prom inh 9, RGS16-Gao HTS 119, HSV augment inactive, Insulin prom inh cell count 157 and HSV augment primary fold 0.92.
